Screens from PubChem BioAssay.
E coli growth: E. coli growth inhibition, primary screen, OD600. OD600 absorbance (concentration not given with the values). 0.21% of 330,000 active. Escherichia coli growth, 23 h; active compounds read low;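 active = OD600 absorbance below the run mean of sample wells minus 3.6 SD, in any replicate, cut at about 0.56 in these data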;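 note: stock transfer was 300 nL into about 60 µL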
HNF4A DNA FP: change in binding of human HNF4A to DNA, primary screen, biochemical, fluorescence polarization, FITC-DNA; Hepatocyte nuclear factor 4-alpha (Homo sapiens), P41235; 1 h; activity change, % at 10 µM; 0.3% of 360,000 active; in the data active = activity change above about 30%, passing the limit was not always enough;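 note: controls were the assay level and a saturating level of protein; the project sought stronger binding though the title names inhibitors; some compounds called inactive have numbers as strong as hits; positive values seem to mean higher polarization but the record does not say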
rRNA inh HTS: reduced GFP signal of wild-type E. coli, primary screen, bacterial rRNA inhibitor project, GFP/RFP fluorescence, OD600, single point; AID 720706, 2013; E. coli WT GFP vs humanized-ribosome RFP mutants, 24 h; active compounds read low; DMSO median 0, no signal -100; GFP signal change (wild-type ribosome), % (no concentration beside the values); 1.6% of 350,000 active;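 active = significant combined selectivity score with lowered wild-type GFP, culture density cut under 30%, mutant RFP and density less affected; inactive = any of these conditions unmet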; note: one replicate is shown; some compounds called inactive have numbers as strong as hits
UCH37 DUB inh: inhibitors of human UCH37 deubiquitinase, primary screen, biochemical, Ub-AMC cleavage, fluorescence; Ubiquitin carboxyl-terminal hydrolase isozyme L5 (Homo sapiens), Q9Y5K5; purified proteasome/UCH37; inhibition, % (concentration not given with the values); 0.33% of 330,000 active;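 active = mean of two replicates above 20%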;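 note: 0% = compound-free wells with enzyme and 100% = wells lacking proteasome; stock transfer was 100 nL into about 20 µL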
Target sequence (Q9Y5K5 whole entry, looked up): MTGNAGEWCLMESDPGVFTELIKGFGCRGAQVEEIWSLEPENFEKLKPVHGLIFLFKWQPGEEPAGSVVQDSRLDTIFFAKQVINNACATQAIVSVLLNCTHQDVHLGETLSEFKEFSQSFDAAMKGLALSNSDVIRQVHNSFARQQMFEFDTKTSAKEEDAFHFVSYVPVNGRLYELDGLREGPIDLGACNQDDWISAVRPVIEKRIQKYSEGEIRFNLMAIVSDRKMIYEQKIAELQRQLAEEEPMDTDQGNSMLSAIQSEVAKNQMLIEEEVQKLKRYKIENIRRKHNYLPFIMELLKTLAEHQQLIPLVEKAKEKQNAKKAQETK
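Test system – human UCH37 enzyme supplied as purified proteasome complex · Incubation – 30 min preincubation with enzyme, 25 min cleavage at room temperature · Detection – AMC fluorescence from Ub-AMC cleavage, excitation 355 nm, emission 460 nm · Benchmarks – no-proteasome wells (full inhibition) and compound-free wells (no inhibition)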
ALR H2O2 inh: inhibitors of human ALR sulfhydryl oxidase, primary screen, biochemical, H2O2 detection, HRP-luminol luminescence, single point; inhibition, % (no concentration beside the values); FAD-linked sulfhydryl oxidase ALR (Homo sapiens), P55789; 3.8% of 290,000 active; purified ALR, DTT oxidation;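 active = mean and each replicate at 75% or more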;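 note: stock transfer was 7.5 nL into about 7.5 µL; 0% = neutral wells and 100% = wells with inactivated enzyme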
Target sequence (P55789 whole entry, looked up): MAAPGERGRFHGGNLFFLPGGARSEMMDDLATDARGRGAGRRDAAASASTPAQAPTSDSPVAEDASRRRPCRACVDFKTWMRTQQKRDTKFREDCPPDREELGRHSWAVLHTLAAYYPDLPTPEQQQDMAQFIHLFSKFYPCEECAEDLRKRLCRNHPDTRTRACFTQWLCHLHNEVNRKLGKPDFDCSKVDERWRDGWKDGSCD
FGF22 binding: binders of human FGF22 protein, primary screen, FGF22 synaptogenesis inhibitor project, biophysical, thermal shift, single point; 1.5% of 340,000 active; Fibroblast growth factor 22 (Homo sapiens), Q9HCT0; recombinant FGF22 thermal shift, SYPRO orange fluorescence; percent of sucrose octasulfate shift, DMSO zero; calls only at 9.99 µM;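 active = melting point raised past a set limit in the mean and every replicate; three in four hits are not shown here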
B2AR ag: beta2AR agonists driving receptor internalization, primary screen, cell-based, FAP fluorogen, flow cytometry. Beta-2 adrenergic receptor (Homo sapiens), P07550. Am2.2-beta2AR cells; reference of the scale not given here. response, % (test concentration not listed). 0.43% of 340,000 active;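 active = response above a set limit, near 3 SD of response in nonfluorescent compounds, cut at about 42% in these data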;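 note: stock transfer was 100 nL into about 11 µL; a reference agonist was the positive control; negative values mostly stem from fluorescent compounds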
Target sequence (P07550 whole entry, looked up): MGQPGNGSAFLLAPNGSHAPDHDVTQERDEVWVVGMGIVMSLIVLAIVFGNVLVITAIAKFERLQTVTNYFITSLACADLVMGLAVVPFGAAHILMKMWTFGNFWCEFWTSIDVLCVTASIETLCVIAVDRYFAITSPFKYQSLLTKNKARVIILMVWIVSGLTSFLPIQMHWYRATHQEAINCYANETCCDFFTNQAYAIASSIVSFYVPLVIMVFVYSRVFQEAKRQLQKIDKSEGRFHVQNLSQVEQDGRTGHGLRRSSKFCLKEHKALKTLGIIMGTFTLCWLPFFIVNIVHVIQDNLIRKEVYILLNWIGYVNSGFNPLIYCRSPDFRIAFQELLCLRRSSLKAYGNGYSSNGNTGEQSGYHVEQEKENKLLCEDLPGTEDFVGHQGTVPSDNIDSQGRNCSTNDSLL
rRNA inh HTS OD600: second read-out of rRNA inh HTS, no call of its own (marks repeat the call); OD600 change, %; measured here: OD600 growth;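 optical density of the mix in the first replicate; 0 = DMSO median and -100 = no signal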
rRNA inh HTS RFP: second read-out of rRNA inh HTS, no call of its own (marks repeat the call); RFP signal change, %; measured here: RFP humanized mutant strains;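 first replicate; 0 = DMSO median and -100 = no signal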
* marks the source's active call; other numbers are inactive results; i = inactive; / = not tested or not shown. A portion of the library, so the mix of outcomes need not match the whole.

SMILES	E coli growth	HNF4A DNA FP	rRNA inh HTS	rRNA inh HTS OD600	rRNA inh HTS RFP	UCH37 DUB inh	ALR H2O2 inh	FGF22 binding	B2AR ag
COC(=O)CSc1cc(C(F)(F)F)nc(-c2ccccn2)n1	0.7	1.8	/	/	/	2.4	-2.1	/	0.3
CCC(=O)c1ccc(OCC(=O)NCc2ccccc2CN2CCCC2)cc1	0.677	0.2	18.3	9.1	8.8	0.2	3.2	i	1.9
COC(=O)N/N=C/c1cc(C)n(-c2ccc(Br)cc2)c1C	/	1.9	/	/	/	/	5.9	i	-8.4
COC(=O)[C@@]12C[C@@H](CC(=O)NCC34CC5CC(CC(C5)C3)C4)C(=O)N(CCc3ccc(OC)c(OC)c3)C1=CCC(C)(C)C2	/	1.1	24.5	12.3	0.1	/	/	i	/
CCC(=O)c1cn(CC(=O)Nc2ccccc2)c2ccccc12	0.646	4.0	-7.3	-6.2	-1.9	2.2	/	i	1.3
O=C(c1cc(COc2ccc3ncccc3c2)on1)N1CCC(O)CC1	0.708	-0.5	5.0	10.8	-3.0	0.1	-11.6	i	-2.5
COc1ccc2c(c1)C(O)C(CO)C(C(=O)O)C2 (stereo unspecified)	0.701	-0.7	8.4	13.1	-0.3	-0.2	/	i	-3.4
O=C(NCc1ccccc1)Nc1cccn(Cc2ccc(Cl)cc2)c1=O	0.736	4.1	-9.5	-7.1	-1.9	-2.8	/	i	0.2
CN(Cc1nccn1C)C(=O)c1ccc2nc(Cc3ccccc3F)oc2c1	0.668	-2.5	16.1	4.9	4.0	2.2	-2.9	i	-5.1
Cc1ccc(-c2csc(NC(=O)c3ccc([N+](=O)[O-])o3)n2)cc1	/	1.9	-4.1	6.5	4.9	/	-14.4	i	19.7
O=C(CN1CCCCC1)Nc1ccc(C(F)(F)F)cc1Cl	0.648	-1.6	12.2	2.2	-2.8	1.8	-1.2	i	-4.1
Cn1nc(C(=O)NNC(=O)c2cccc(Cl)c2)ccc1=O	0.652	4.1	13.8	17.1	0.0	5.3	-0.6	i	1.8
CN1CCN(NC(=O)/C=C/c2ccc(Br)cc2)CC1	0.665	2.6	4.7	2.9	-1.5	2.7	26.2	i	-2.8
Cc1cccc(NC(=O)CN2C(=O)CCS(=O)(=O)c3ccccc32)c1C	0.678	-3.0	8.4	4.5	-1.8	5.2	-0.5	i	1.2
CCn1c(SCc2cccc(C)c2)nnc1-c1ccccc1	0.764	0.2	/	/	/	2.6	2.1	/	-2.1
COc1ccc(S(=O)(=O)n2c([N+](=O)[O-])cnc2C)c(C)c1C	0.714	-0.3	3.0	7.1	-1.0	3.9	-7.7	i	-9.9
O=S(=O)(NCc1ccccc1)c1ccc(Br)c2nsnc12	0.68	3.1	-6.4	6.9	5.6	4.2	-27.5	i	7.7
S=C(Nc1ccccn1)c1ccccn1	0.663	-1.6	/	/	/	0.9	-15.3	/	-9.5
Cc1nc2ccc(NS(=O)(=O)c3ccccc3Cl)cc2s1	0.694	10.7	-5.4	-6.0	1.3	0.1	-17.8	i	3.0
CCc1ccc(Nc2nnc(SCC(=O)N(C)C3CCS(=O)(=O)C3)s2)cc1 (stereo unspecified)	0.646	0.1	7.4	4.6	-1.0	2.6	-1.8	/	-5.3
CCOC(=O)C1=C(O)C(Nc2nc3ccccc3s2)(C(F)(F)F)N=C1C (stereo unspecified)	0.683	0.4	/	/	/	1.5	-2.4	/	3.2
CCn1cc(C(=O)NCCc2ccccc2)c(=O)c2cc(S(=O)(=O)N3CCCC3)ccc21	0.698	-1.4	6.0	3.5	-1.4	3.9	-10.9	i	0.8
CNC(=O)C(=O)NCCc1ccc(Cl)cc1	0.719	0.3	/	/	/	3.9	-6.2	/	0.8
COc1cccc(N2CCN(C(=O)c3ccc(N4C(=O)NC5CC4(C)Oc4ccccc45)cc3)CC2)c1 (stereo unspecified)	0.717	-2.9	/	/	/	-1.4	0.6	/	12.7
O=C(NNC(=O)c1ccccc1OCc1ccc(F)cc1)c1ccccc1O	0.726	-1.7	/	/	/	-31.1	-7.1	i	-8.0
(continued)
SMILES	E coli growth	HNF4A DNA FP	rRNA inh HTS	rRNA inh HTS OD600	rRNA inh HTS RFP	UCH37 DUB inh	ALR H2O2 inh	FGF22 binding	B2AR ag
COc1ccc(S(=O)(=O)N(C)C)cc1NC(C)C(=O)Nc1cccc(C#N)c1 (stereo unspecified)	0.673	1.9	3.3	2.3	1.6	0.8	-22.1	i	-1.6
COc1ccc(-c2ccnc3nc(N4CCOCC4)nn23)cc1	0.669	1.3	/	/	/	i	/	/	-6.6
COc1cccc(NC(=O)CSc2nnc(COc3ccc4c(c3)CCCC4)o2)c1	0.786	2.9	/	/	/	1.8	3.4	/	3.0
O=C(/C=C/c1ccc(OCCCF)cc1)N1CCOCC1	0.654	-1.0	6.6	10.1	0.0	2.9	5.3	i	-5.9
Cc1ccc(C(=O)c2oc3ccccc3c2NC(=O)c2cc(-c3ccccc3O)n[nH]2)cc1	0.758	-0.5	/	/	/	-36.7	-9.4	/	-1.6
CC(C)(C)NC(=O)C(c1ccccn1)N(C(=O)c1csnn1)C1CCCC1 (stereo unspecified)	0.723	-1.9	2.0	8.5	3.6	1.1	-4.2	i	3.8
CCCn1nc(C(=O)NNC(=O)CSCC(=O)Nc2cc(C)on2)c2ccccc2c1=O	0.653	6.2	0.2	7.2	1.4	1.5	17.1	i	-2.2
O=C(NCCCN1CCOCC1)c1cc(S(=O)(=O)N2CCCCC2)ccc1Cl	/	-9.1	-1.0	9.6	-4.0	/	/	i	/
CN1CCN(C(=O)c2ccc3c(c2)N(Cc2ccccc2F)C(=O)c2ccccc2S3=O)CC1 (stereo unspecified)	0.669	-1.5	3.7	0.2	0.1	2.7	6.0	i	2.5
c1ccc(CSc2nnc(SCc3ccccn3)s2)nc1	0.698	1.6	/	/	/	0.0	-5.1	/	-0.7
O=C(Nc1ncc(Cc2ccccc2)s1)C1COc2ccccc2O1 (stereo unspecified)	0.725	-2.1	/	/	/	2.4	-1.9	/	8.7
C=CCNc1cnn(CC(C)=O)c(=O)c1Br	0.811	1.7	/	/	/	7.5	-3.7	/	-2.1
COc1cccc(C2C(C(=O)OC(C)C)=C(C)Nc3ncnn32)c1 (stereo unspecified)	0.637	1.1	/	/	/	1.7	/	/	3.5
O=C(Nc1cccc(NC(=O)c2cccc(F)c2)n1)c1cccc(F)c1	0.647	-1.9	-20.9	-54.5	11.4	3.1	-5.8	i	3.7
CCc1noc(C)c1C(=O)Oc1ccc(N(C)S(=O)(=O)c2ccccc2)cc1	0.671	0.1	-6.1	-11.1	3.7	2.2	1.0	i	-4.8
Cc1c(C(=O)Nc2ccc3c(c2)OCO3)sc2ncn(CC(=O)N3CC(C)CC(C)C3)c(=O)c12 (stereo unspecified)	0.712	2.7	/	/	/	1.0	-0.8	/	-3.2
CCc1ccc(C2=NN(C(C)=O)C(c3ccco3)C2)cc1 (stereo unspecified)	0.704	5.9	-17.9	-15.5	-2.8	3.7	-1.0	i	-5.9
O=C(c1ccccc1)c1n[nH]c(-c2ccccc2)cc1=O	0.677	-3.6	13.6	-8.1	-3.5	5.8	8.4	i	-3.6
C=CCc1c(C)nc(C)nc1N/N=C/c1ccccc1O	/	1.6	/	/	/	/	41.8	/	17.7
CC(=O)c1cn(N2CCCCC2)c(=O)[nH]c1=O	0.702	-0.2	19.2	17.7	0.1	1.3	-14.7	i	-10.2
CCOc1ccc(/C=N/NC(=O)c2[nH]ncc2Br)c(O)c1	/	-1.4	-34.3*	-15.8*	-0.1*	/	5.3	i	-2.2
COc1ccc(-n2ncc3c(=O)n(Cc4c(F)cccc4Cl)cnc32)cc1	0.681	-3.7	16.6	-1.5	2.2	-3.1	-3.8	i	0.0
CCc1nnc(NC(=O)c2ccc(C)o2)s1	0.711	-0.4	7.3	16.5	-1.3	0.5	-6.3	i	7.5
CC12CCCC(CC(=O)O)(C1)NC(=O)C2 (stereo unspecified)	0.631	0.7	15.3	24.2	-0.1	0.7	/	i	1.4
CCCCCOC(=O)C1[C@H]2C(=O)N(Cc3cccs3)C[C@]23C=C[C@H]1O3 (stereo partly specified)	0.724	-1.9	/	/	/	2.1	25.8	/	-3.6
The results go on:
SMILES	E coli growth	HNF4A DNA FP	rRNA inh HTS	rRNA inh HTS OD600	rRNA inh HTS RFP	UCH37 DUB inh	ALR H2O2 inh	FGF22 binding	B2AR ag
COc1ccc(Nc2nc(N3CCCCC3)nc3ccccc23)c(OC)c1	0.673	0.0	/	/	/	-17.4	-7.6	/	-8.4
CC(C)NC(=O)c1csc([C@@H]2O[C@H](CO)[C@H](O)[C@H](O)[C@H]2O)n1	/	-0.2	8.3	12.8	2.1	/	/	i	/
Cc1cnc(C(=O)Nc2nc(-c3ccccc3)cs2)cn1	0.71	-0.4	/	/	/	1.1	-6.4	/	5.7
Cc1cc(N2CCN(Cc3ccccc3)CC2)n2nc(C)c(-c3ccccc3)c2n1	0.745	-0.9	/	/	/	-110.0	-1.1	/	7.3
CCCCCCNCC(=O)N1CCC(Cc2ccccc2)CC1	0.636	0.2	4.3	-5.6	8.8	-0.2	7.0	i	-10.9
Cn1c(C(C#N)C(=O)c2sc3ccccc3c2Cl)nc2ccccc21 (stereo unspecified)	0.719	3.1	/	/	/	3.2	0.5	/	-8.9
COCCCN(C(=S)Nc1cc(Cl)cc(Cl)c1)C(C)c1ccccn1 (stereo unspecified)	0.614	-1.7	-39.3*	-13.5*	6.3*	3.2	-2.5	i	-1.3
COc1ccc(/C=C/c2nnc(NC(C)=O)s2)cc1	0.634	-1.4	-3.3	-2.5	1.2	-49.9	/	i	2.8
Cc1cc(NC(=O)CN2CC(C)OC(C)C2)n(-c2nc3ccccc3s2)n1 (stereo unspecified)	0.721	1.1	/	/	/	2.6	/	/	-15.6
CN(C)S(=O)(=O)c1ccc(NC(=O)N2CCN(c3ccccc3Cl)CC2)cc1	0.631	0.1	/	/	/	0.7	-4.2	/	-0.5
CCCn1nc(NC(=O)C(C)C)c2cc3cc(OC)ccc3nc21	0.633	0.9	9.0	12.5	-2.3	-33.9	/	i	22.4
CC(=O)Nc1ccc(NC(=O)COC(=O)/C(=C/c2ccccc2)n2nnnc2C)cc1	0.69	-2.1	-5.6	-13.2	-0.8	3.9	10.4	i	10.3
CCCCCCCC(=O)NC(Nc1ccc(S(N)(=O)=O)cc1)C(Cl)(Cl)Cl (stereo unspecified)	0.709	0.0	/	/	/	3.9	/	/	2.9
COc1ccccc1C(=O)NCCCCNC(=O)c1ccccc1OC	0.671	-2.3	-0.9	2.9	0.0	6.0	0.7	i	0.9

A draw from above in order of length of the SMILES, descending:
SMILES	E coli growth	HNF4A DNA FP	rRNA inh HTS	rRNA inh HTS OD600	rRNA inh HTS RFP	UCH37 DUB inh	ALR H2O2 inh	FGF22 binding	B2AR ag
CC(=O)Nc1ccc(NC(=O)COC(=O)/C(=C/c2ccccc2)n2nnnc2C)cc1	0.69	-2.1	-5.6	-13.2	-0.8	3.9	10.4	i	10.3
Cn1c(C(C#N)C(=O)c2sc3ccccc3c2Cl)nc2ccccc21 (stereo unspecified)	0.719	3.1	/	/	/	3.2	0.5	/	-8.9
COc1ccc(/C=C/c2nnc(NC(C)=O)s2)cc1	0.634	-1.4	-3.3	-2.5	1.2	-49.9	/	i	2.8
